Bioassay records as filed in PubChem BioAssay.
HTT promoter inh = inhibitors of huntingtin promoter activity; HEK293 HTT promoter firefly luciferase reporter (activity 0% = vehicle and -100% = no light), 24 h; Potency, µM (highest dose often 57.5 µM), inactives show at the top dose activity change, negative = inhibition, actives largely listed as inhibitors; actives 0.93% (n = 48,000); active = well fitted inhibition curve with a large enough effect; inconclusive = small, poorly fitted or top-dose-only effect; inactive = no such curve, though single readings can be large or run the other way; note: nearly all actives have a fitted effect of over 50% in size
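Quantitative HTS used concentration series of up to 57.5 uM final on HEK293 luciferase reporter cells, 24 h at 37 degrees C. Readout was Dual-Glo firefly luminescence.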
PMP22 txn = modulates PMP22 transcription in S16 Schwann cells. actives 2% (n = 43,000). Potency, µM (top dose mostly 57.5 µM), inactives show at the top dose activity change, negative = inhibition, hits mostly inhibitors. S16 Pmp22-F2sN Schwann cells (luciferase reporters placed in the Pmp22 gene), FLuc/NLuc coincidence luminescence, 24 h; active = clear falling dose curves in both reporters; inconclusive = both reporters move, but less clearly or upward; inactive = either reporter flat; the % is the NLuc reporter signal; note: % is set by controls: 0 for no effect and ±100 for the full control effect; some results filed as inactive show a strong effect at the top dose
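Schwann cells carrying the coincidence reporter were exposed to library compounds for 24 h at 37C, then lysed and read for FLuc and, after quenching, NLuc luminescence on a CCD imager.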
The depositor's hits bear a star; u = inconclusive; x = not tested or not shown; [ ] = dose if it differs, or a comment. Potency is the fitted concentration of half-maximal effect.

The opening 6 compounds as a preview:
SMILES | HTT promoter inh | PMP22 txn
O=C(CSc1cn(CCNC(=O)c2ccccc2F)c2ccccc12)Nc1ccccc1F | -16% | -21%
CC(C)(C)c1ccc(CSc2nc3c(c(=O)[nH]2)CCCC3)cc1 | u | -5%
COc1cccc(-n2nnc(-c3nc(-c4cccs4)no3)c2N)c1 | 106%[activator] | -3%
Cn1c(C(=O)NCc2ccccc2F)cc2oc3ccccc3c21 | -17% | u
O=C(CSc1nc2c(cnn2-c2ccc(F)cc2)c(=O)[nH]1)Nc1ccccc1C(F)(F)F | u | 2%
CC(=O)Nc1ccc2nc(SCCOc3ccccc3Cl)sc2c1 | -11% | -58%

All compounds of this part, previewed entries included:
SMILES | HTT promoter inh | PMP22 txn
O=C(CSc1cn(CCNC(=O)c2ccccc2F)c2ccccc12)Nc1ccccc1F | -16% | -21%
CC(C)(C)c1ccc(CSc2nc3c(c(=O)[nH]2)CCCC3)cc1 | u | -5%
COc1cccc(-n2nnc(-c3nc(-c4cccs4)no3)c2N)c1 | 106%[activator] | -3%
Cn1c(C(=O)NCc2ccccc2F)cc2oc3ccccc3c21 | -17% | u
O=C(CSc1nc2c(cnn2-c2ccc(F)cc2)c(=O)[nH]1)Nc1ccccc1C(F)(F)F | u | 2%
CC(=O)Nc1ccc2nc(SCCOc3ccccc3Cl)sc2c1 | -11% | -58%
Cc1ccc2nc(-c3ccccc3O)c(Nc3ccccc3C)n2c1 | -18% | -1%
O=C(c1cnc(N2CCCCC2)c2ccccc12)N1CCN(c2ccc(F)cc2)CC1 | u | u
Cc1ccccc1CN1CCC(CNC(=O)c2c(C)oc3ncnc(N4CCCCC4)c23)CC1 | 0% | 0%
CC(C)CCn1c(SCc2cccc(F)c2)nc2ccsc2c1=O | -11% | -4%
CCc1ccc2occ(CC(=O)Nc3c(C(=O)c4ccccc4)oc4ccccc34)c2c1 | -11% | -50%
CC(=O)c1c(C)oc2c1cc(NS(=O)(=O)c1ccc(C(C)(C)C)cc1)c1ccccc12 | -17% | u
C=C1CCC2[C@](C)(CO)C(O)CC[C@]2(C)C1CC=C1C(=O)OCC1O (some centres undefined) | 10%[116 µM] | x
O=C1c2cccc(O)c2C(=O)c2c(O)cc(CO)cc21 | 13% | x
Cc1cc(C(=O)O)c2c(=O)n(C)c(=O)n(C)c2n1 | 1% | 0%
CCOc1ccc2nc(NC(=O)c3nc(SC)ncc3Cl)sc2c1 | 0% | u
COc1ccc(NC(=O)c2c(NCc3cccs3)sc3c2CCC(C)C3)c(OC)c1 (centres undefined) | -12% | u
Cc1ccc(NC(=O)Cn2c(-c3ccc4c(c3)OCO4)cn(-c3ccccc3)c2=O)cc1 | 20% | -12%
Nc1c(C(=O)Nc2ccccc2Cl)nnn1Cc1cccc(Cl)c1 | u | u
O=C(NCC(c1cccs1)S(=O)(=O)c1cccs1)c1ccc(F)c(F)c1 (centres undefined) | -13% | -10%
CCc1ccccc1NC(=O)CSc1nccn1C | -27% | 11%
CCCN1CCN(c2nnc(-n3cccc3C(=O)Nc3ccccc3C(F)(F)F)s2)CC1 | -17% | -16%
Cc1nn(-c2ccc(F)cc2)c(-n2cccc2)c1C(=O)N1CCN(c2ccccc2)CC1 | -31% | 4%
Cc1cccc2c1-c1sc(C(=O)Nc3ccc(F)cc3F)cc1CO2 | -12% | -5%
CCC(=O)N1CCc2cc(Br)cc(S(=O)(=O)N3CCCC(C(=O)Nc4ccc(OC)cc4OC)C3)c21 (centres undefined) | -1% | -33%
CCOc1ccc(C(=O)Nc2ccc(-c3cc4ccccc4oc3=O)cc2)cc1Br | u | 25%
CN(C)CCN(Cc1ccccc1)c1ccccn1 | 9% | x
O=C1NCCN1CCN1CCC(c2cn(-c3ccc(F)cc3)c3ccc(Cl)cc23)CC1 | u | x
O=C(CN1C(=O)CC(c2ccccc2)Sc2ccccc21)Nc1cccc(Cl)c1 (centres undefined) | u | -24%
CCc1ccc(NC(=O)c2cnn(-c3c(C)cccc3C)c2C2CCNCC2)cc1 | 0% | 5%
CCOC(=O)C1CCN(S(=O)(=O)c2ccc3c(c2)NC(=O)C(C)C(=O)N3)CC1 (centres undefined) | -14% | -4%
COc1ccc(OC)c(NC(=O)C2CCCN(S(=O)(=O)c3ccc4[nH]c(=O)ccc4c3)C2)c1 (centres undefined) | -10% | -11%
Cc1c(Cl)cccc1NC(=O)c1ncn(-c2ccccc2)n1 | 41%[activator] | 3%
CCOc1ccc(CCNC(=O)c2cc3c(=O)[nH]c4ccc(C)cc4c3s2)cc1OCC | -17% | u
COc1cccc(N2CCN(C(=O)C3CCN(S(=O)(=O)c4cccc5nonc45)CC3)CC2)c1 | -21% | -34%
Cc1cc(NC(=O)Nc2nnc(N3CCCCCC3)s2)ccc1Br | 2% | -2%

Compound profiles (already shown):
Cc1cc(NC(=O)Nc2nnc(N3CCCCCC3)s2)ccc1Br is entered as HTT promoter inh = 2%; PMP22 txn = -2%
CCOc1ccc(C(=O)Nc2ccc(-c3cc4ccccc4oc3=O)cc2)cc1Br is entered as HTT promoter inh = u; PMP22 txn = 25%

Continued:
SMILES | HTT promoter inh | PMP22 txn
CCOc1ccc(CNC(=O)CCC(=O)N2CCSc3ccccc32)cc1 | -21% | -1%
Cc1c(C(=O)Nc2ccc(F)c(F)c2)oc2ccc(S(=O)(=O)N3CCC4(CC3)OCCO4)cc12 | -11% | -39%
Cc1cccc(N2CCN(C(=O)C3CCCN(S(=O)(=O)c4ccc5c(c4)oc(=O)n5C)C3)CC2)c1C (centres undefined) | 5µM* | 11µM*
Cc1cccc(-c2[nH]c(C(C)(C)C)nc2-c2ccc3nccnc3c2)n1 | u | x
Cc1ccc(-n2nc(C(=O)N3CCCCC3)c(=O)n(C)c2=O)cc1 | -2% | -15%
COc1ccc(C2CC(=O)c3cc(-c4nc(-c5cccc([N+](=O)[O-])c5)cs4)c(=O)n(-c4cccc(C)c4)c3C2)cc1 (centres undefined) | -5% | u
CCOc1ccc(C(=O)Nc2nnc(SCc3cc(=O)n4ccccc4n3)s2)cc1 | 13% | -2%
CCOC(=O)C1CCCN(S(=O)(=O)c2ccc3c(c2)CCCN3C(C)=O)C1 (centres undefined) | u | -3%
CCC(=O)N1CCc2cc(Br)cc(S(=O)(=O)N3CCCC(C(=O)NCc4ccccc4)C3)c21 (centres undefined) | -25% | u
Cc1ccc(-c2cc(-c3coc4ccccc4c3=O)c3c(n2)-c2ccccc2OC3)cc1 | -6% | 4%
Cc1cc(C(F)F)n2nc(C(=O)Nc3cc(Cl)ccc3C)nc2n1 | -6% | 4%
N#Cc1c(C(F)(F)F)cc(-c2cccs2)nc1SCC(=O)Nc1cccc(C(F)(F)F)c1 | -38% | u
Cc1ccc(CNC(=O)c2cnc(N3CCCC3)nc2C)cc1 | -24% | 4%
Cc1nn(-c2ccc(F)cc2)c(-n2cccc2)c1C(=O)NCCCN1CCN(c2cccc(Cl)c2)CC1 | u | u
CCS(=O)(=O)N1CCc2cc(C(=O)Nc3cccc(Cl)c3C)ccc21 | 28% | 4%
Cc1cc(NS(=O)(=O)c2cn(C)c(C)n2)ccc1Br | 5% | -20%
Cc1cccc(NS(=O)(=O)c2ccc3c(c2)n(C)c(=O)n3C)c1C | -23% | -88%
COc1ccc(CCCc2nnc(SCC(=O)Nc3cc(F)ccc3C)o2)cc1 | u | -12%
Cc1ccc(-n2ncc3c(N4CCC(C)CC4)ncnc32)cc1C | u | 20%
CCOc1ccccc1NC(=O)CSc1nc(=O)[nH]c2c1CCCC2 | u | u
CCOC(=O)c1cc2c(=O)n3ccccc3nc2n(CCCOC)c1=NC(=O)c1c(-c2ccccc2Cl)noc1C | -26% | -15%
Cc1oc(-c2cccc(Cl)c2)nc1CN1CCCC(C(=O)NCc2ccc(F)cc2)C1 (centres undefined) | 1% | u
CSc1ccccc1NC(=O)CCS(=O)(=O)c1nc(-c2cccs2)cc(C(F)(F)F)n1 | -6% | u
CCOc1ccc(NC(=O)c2c(NCc3cc(OC)c(OC)cc3OC)sc3c2CCCC3)cc1 | -31% | -71%
Cc1cc(N(C)Cc2ccccc2)n2nc(-c3ccc(C(C)(C)C)cc3)nc2n1 | -9% | u
CCOc1ccccc1C1C(C(=O)Nc2ccccc2)=C(C)Nc2nc(SCC(=O)c3ccc(C)cc3)nn21 (centres undefined) | -6% | u
CCOc1ccc(-c2ccc(CO)o2)cc1N | 15% | u
O=C(c1ccc2c(c1)N(Cc1ccc(F)cc1)C(=O)c1ccccc1S2(=O)=O)N1CCCC1 | -12% | -13%
CC(=O)c1cccc(N(C(=O)Cn2nnc3ccccc32)C(C(=O)NCc2ccccc2)c2ccc(F)cc2)c1 (centres undefined) | -8% | u
CN(C)Cc1ccc(-c2nc3cccc4c3n2CCNC4=O)cc1 | -4% | x
COc1ccc(-c2noc(CNC(=O)COc3cccc(C)c3C)n2)cc1 | -3% | -22%
Cc1ccc(CNC(=O)CN2C(=O)CSc3ccc(S(=O)(=O)N4CCCC4)cc32)cc1 | -6% | -4%
COc1cc(Cl)c(C)cc1NC(=O)CNC(=O)Cn1ccc2ccccc2c1=O | -7% | -2%
CCC(=O)C1=C(c2ccccc2)N(C(=O)CC)n2c(nnc2C2CCCCC2)S1 | -7% | 14%
Cc1cccn2c(=O)c(C(=O)N3CCN(c4ccc(Cl)cc4)CC3)cnc12 | 0% | -17%
O=C(Cn1ncc2c3ccccc3n(Cc3ccc(Cl)cc3)c2c1=O)NC1CCCCCC1 | 2% | 8%
Cc1cccc(-c2noc(-c3ccc(N4CCCC4)c([N+](=O)[O-])c3)n2)c1 | u | 6%
COc1cc(OC)c(NC(=O)C2CCN(C(=O)c3sc4nc[nH]c(=O)c4c3C)CC2)cc1Cl | -13% | 5%
CC1CN(C(=O)N2CCC(C(=O)NCCC3=CCCCC3)CC2)c2ccccc2O1 (centres undefined) | 0% | 4%
CC(C)(C)CC(C)(C)c1ccc(O)c(-n2nc3ccccc3n2)c1 | 2% | x
CC(C)c1ccc(N2C(=O)N(Cc3ccccc3Cl)c3ccccc3S2(=O)=O)cc1 | u | -5%
CC(=O)NCCNc1nc2c(S(=O)(=O)c3ccc(C)c(C)c3)nnn2c2ccc(Cl)cc12 | 13% | u
COc1ccccc1CNS(=O)(=O)c1cc(Br)cc2c1N(C(=O)C1CC1)CC2 | -12% | -23%
CCOc1ccc(NC(=O)Cn2ncc3c2-c2cc(C)ccc2OC3)cc1 | -22% | 4%
CCc1cccc(NC(=O)CN(C)S(=O)(=O)c2ccc3c(c2)CCCN3C(C)=O)c1 | u | u
COc1ccc(-n2c(=O)c3c4c(sc3n(Cc3ccc(C)cc3C)c2=O)CCC4)c(OC)c1 | -16% | u
O=C(NCc1ccccc1)[C@H](Cc1ccccc1)NC(=O)[C@@H]1O[C@@H]1C(=O)NCCc1ccc(O)cc1 | -10% | x
O=C(CN1C(=O)COc2ccc(Cl)cc21)Nc1ccc(F)cc1 | -18% | 44%
CN1C(=O)C(Cc2c[nH]c3ccccc23)NC1=S (centres undefined) | 14% | x
Cc1cc(C)c(NC(=O)Cn2nnc(-c3nc(-c4ccccc4)no3)c2N)c(C)c1 | -9% | u
COc1ccc2oc(=O)c(-c3cn4c(n3)sc3cc(F)ccc34)cc2c1 | -10% | 3%
Cc1ccc(-n2c(=O)c3oc4ccccc4c3n(Cc3cccc(F)c3)c2=O)cc1C | u | u
O=C(Nc1ccc(C(F)(F)F)cc1)C1(c2cccs2)CCOCC1 | -12% | 2%
Cc1cc(C)c2c(n1)SCCN2C(=O)Nc1ccc(C(=O)Nc2cc(Cl)ccc2C)cc1 | -13% | 6%
CCc1nn(CCCC(=O)NCc2ccc(OC(C)C)cc2)c(=O)c2cc3occc3n12 | -20% | -20%
COC(=O)c1ccc(NC(=O)Cn2c(=O)oc3ccccc32)cc1 | -4%[11.5 µM] | 9%
CC(=O)C1=C(c2cccc([N+](=O)[O-])c2)N(C(C)=O)n2c(nnc2-c2ccc(C)cc2)S1 | -12% | u
COc1ccc(OC2CCN(S(=O)(=O)c3cccc(F)c3)CC2)cc1 | u | -24%
C#C[C@]1(O)CC[C@H]2[C@H]3CCc4cc(OC)ccc4[C@H]3CC[C@@]21C | -8% | x
Cc1cccc(N(C)c2nc3ccc(C)cc3n3cnnc23)c1 | 13% | -37%
(listing goes on)
SMILES | HTT promoter inh | PMP22 txn
Cc1ccc(N2CCN(Cc3nnc(-c4ccccc4F)o3)CC2)c(C)c1 | -19% | -9%
Cc1ccc(OCC(=O)Nc2ccc(OCc3cc(=O)n4ccsc4n3)cc2)cc1 | -5% | -4%
CCN[C@H]1CN(CCCOC)S(=O)(=O)c2sc(S(N)(=O)=O)cc21 | -5% | x
CCN(C(=O)CSc1nc(-c2ccc(C(C)C)cc2)no1)c1cccc(C)c1 | -17% | -20%
O=C(NCCc1ccccc1)c1ccc(CSc2nc3ccncc3n2Cc2cccc(F)c2)cc1 | u | -28%
